Assay outcomes: PubChem BioAssay, several laboratories
RecA splice inh: Mtb RecA intein splicing inhibitors, primary screen, biochemical, fluorescence, HTS; Protein RecA (Mycobacterium tuberculosis (strain ATCC 25618 / H37Rv)), P9WHJ3; cell-free RecA intein splicing; inhibition, %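 (about 9 µM by stock and volumes)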; hit rate 0.75% among 290,000; in the data active = inhibition above about 30%;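 note: 0% = vehicle wells and 100% = reference inhibitor control wells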
Target sequence (P9WHJ3 whole entry, looked up, canonical isoform): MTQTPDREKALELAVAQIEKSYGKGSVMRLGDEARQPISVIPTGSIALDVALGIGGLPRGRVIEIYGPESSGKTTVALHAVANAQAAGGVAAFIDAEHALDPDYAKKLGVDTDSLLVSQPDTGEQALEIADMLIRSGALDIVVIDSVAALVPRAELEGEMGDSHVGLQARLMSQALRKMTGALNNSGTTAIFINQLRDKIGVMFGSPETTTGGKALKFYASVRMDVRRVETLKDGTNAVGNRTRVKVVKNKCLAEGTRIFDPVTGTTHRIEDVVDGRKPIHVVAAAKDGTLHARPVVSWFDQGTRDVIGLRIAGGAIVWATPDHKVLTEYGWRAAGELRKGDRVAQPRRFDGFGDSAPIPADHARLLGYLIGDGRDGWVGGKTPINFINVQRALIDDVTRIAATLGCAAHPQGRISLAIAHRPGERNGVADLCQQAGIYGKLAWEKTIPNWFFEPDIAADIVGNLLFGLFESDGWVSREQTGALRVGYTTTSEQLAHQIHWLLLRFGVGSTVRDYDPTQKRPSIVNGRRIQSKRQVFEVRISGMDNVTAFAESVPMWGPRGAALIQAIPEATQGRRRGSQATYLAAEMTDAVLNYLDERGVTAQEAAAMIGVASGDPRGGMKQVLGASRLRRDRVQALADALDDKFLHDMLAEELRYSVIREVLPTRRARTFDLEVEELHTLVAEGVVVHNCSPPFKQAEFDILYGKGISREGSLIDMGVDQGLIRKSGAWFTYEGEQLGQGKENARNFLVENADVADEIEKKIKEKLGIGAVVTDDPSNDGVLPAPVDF
YopH inh: YopH tyrosine phosphatase inhibitors, primary screen, biochemical, fluorescence Ex485/Em525; YopH tyrosine phosphatase [Yersinia enterocolitica]; inhibition, %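 (about 10 µM by stock and volumes)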; hit rate 0.16% among 140,000; AID 898, 2007;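 active = inhibition of 50% or more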;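 note: controls were vehicle for no effect and minimum signal wells for full effect; inactives centre near -20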
Mtb betalactam: beta-lactam sensitization of Mtb H37Rv, H37Rv; M. tuberculosis H37Rv growth with meropenem, percent inhibition; hits of this screen are not shown here; inhibition, % at 25 µM; hit rate 0.27% among 330,000;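 active = about 74% or more and at least 40 points above the plate without the antibiotic, then above 30% in a dose series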;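 note: growth measured after seven days incubation then overnight dye step; 0% = bacteria only wells and 100% = bacteria with antibiotic; twin plates without the antibiotic show which effects depend on it; some results filed as inactive read as strong as hits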
Arbovirus inh: antivirals against arbovirus infection, primary screen, cell-based, full library, 10K replicate subset; arbovirus infection cell-based antiviral screen; inhibition, % at 10 µM; hit rate 0.37% among 200,000;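 active = inhibition from about 30%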;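 note: bluetongue infection of BSR cells; cell survival read as ATP light after 72 h; 0% = infected wells without compound and 100% = uninfected wells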
Mtb H37Rv: M. tuberculosis H37Rv growth inhibitors, H37Rv strain (AID 1626) | M. tuberculosis H37Rv growth inhibition; higher % means a stronger effect | one-dose inhibition, % at 10 µM; IC50 in µM for titrated hits | hit rate 0.95% among 220,000;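 active = confirmed in a dose series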;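 note: bacteria incubated seven days before Alamar blue readout; 0% = bacteria only wells and 100% = bacteria with antibiotic wells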
Arbovirus inh repeat: further read-out of Arbovirus inh, marked with its call; inhibition, %; measured here: 10K subset replicate screen; many hits read low in the repeat;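 first of two repeat runs on a subset; 0% = infected and 100% = uninfected wells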
Active calls of the source: *; x = no result given. Not all compounds are listed; rates above refer to the full screens.

SMILES | RecA splice inh | YopH inh | Mtb betalactam | Arbovirus inh | Mtb H37Rv | others
Cc1ccc(S(=O)(=O)NC2(C(F)(F)F)NC(=O)N(c3ccc(F)cc3)C2=O)cc1 (stereo not drawn) | 4.6 | x | 18 | x | x
NC(=O)NC(Cc1ccccc1)C(=O)Nc1ccc(S(N)(=O)=O)cc1 (stereo not drawn) | 0.7 | -13 | 0 | 1 | 3%
CCNc1nc2[nH]c(=O)c3c(c2s1)OC(N)=C(C#N)C3c1ccc(C)cc1 (stereo not drawn) | 0.9 | -22 | 3 | 8 | -3%
CCN(CC#CCC(O)(c1ccccc1)C1CCCC1)C(C)C (stereo not drawn) | 0.0 | -6 | -10 | -1 | 1%
COC(=O)CSc1nc(NC#N)nc(NC(C)C)n1 | -7.7 | -86 | -6 | 7 | -21%
Oc1ccc2ccccc2c1N=Nc1ccccn1 | -1.2 | -23 | 59 | -23 | 7%
N#Cc1c(N)nc(-c2ccccc2)nc1-c1ccccc1 | 0.6 | -43 | -6 | -3 | 10%
CCOC(=O)c1nccnc1C(=O)Nc1cccc(C(F)(F)F)c1 | -0.8 | x | 1 | -2 | -3%
Cc1cc(C)cc(NC(=S)N2CCN(Cc3ccccc3)CC2)c1 | 2.3 | x | -1 | 8 | 10%
Cc1csc(SCC(=O)O)n1 | 1.6 | -7 | 4 | 1 | 4%
Cc1cccc(NC(=O)CSCC(=O)NCc2cccc(C(F)(F)F)c2)c1 | 3.8 | x | -7 | x | x
CSc1ccccc1C(=O)N1CCCC(CNC(=O)c2ccc(F)cc2)C1 (stereo not drawn) | -0.3 | x | 6 | x | x
COc1ccc(OC)c(-c2cc(C(=O)N3CCN(c4ccccc4)CC3)no2)c1 | 7.3 | -19 | 2 | -5 | 3% | Arbovirus inh repeat=-4
CCN(CCO)Cc1csc2c(Br)cccc12 | 0.9 | -26 | 2 | 5 | 6%
CCn1c(=O)cc(SCC(=O)NCc2ccccn2)c2ccccc21 | -5.1 | -14 | -4 | -7 | -4%
Cc1nn(-c2ccccc2)c(C)c1/C=N/n1c(-c2ccc(Cl)cc2)n[nH]c1=S | 6.5 | -18 | 0 | -20 | 15%
CCCOc1ccc(N2C(=O)CC(N(C(=O)c3ccco3)c3ccc(OCCC)cc3)C2=O)cc1 (stereo not drawn) | x | 2 | -7 | -4 | -2%
Cc1csc(NC(=O)CSc2nc3[nH]ncc3c(=O)[nH]2)n1 | x | x | -4 | 21 | 1%
CN(C)c1ccc(NC(=O)Cn2cc3c(n2)CCCC3)cc1 | 0.5 | -7 | 87 | 22 | 13µM* | Arbovirus inh repeat=1
CCC(C)(C)NC(=O)C(c1ccccn1)N(C(=O)c1csnn1)c1ccccc1 (stereo not drawn) | 2.0 | x | 3 | -4 | -4%
Cc1ccc(-n2nc3c(N4CCC(C(=O)NCc5cccc(F)c5)CC4)nnc(C)c3c2C)cc1 | -1.2 | x | 94 | x | x
O=C(NNC(=O)c1cc2cc(OC(F)(F)F)ccc2[nH]1)c1ccc(Cl)cc1 | -6.4 | x | 0 | x | 2%
Fc1ccc(OCc2nc(-c3ccc(Br)o3)no2)c(F)c1 | 0.0 | -53 | 2 | -10 | 22% | Arbovirus inh repeat=-3
O=C(CCCN1C(=O)S/C(=C/C=C/c2ccccc2)C1=O)Nc1ccc(C(=O)O)cc1 | 20 | x | 0 | x | x
S=C(Cc1ccc(-c2ccccc2)cc1)N1CCOCC1 | -2.9 | x | 2 | x | x
Cc1cccc(NC(=O)c2snc3c(=O)[nH]cnc23)c1 | x | -27 | x | 9 | -3%
Cc1ccccc1CNC(=O)Cn1ccc2cc(S(=O)(=O)N3CCCCCC3)ccc21 | -0.2 | x | 3 | x | x
Cc1ccccc1N(C(=O)Cc1ccsc1)C(C(=O)NC1CCCCC1)c1ccc(F)cc1 (stereo not drawn) | 0.2 | -22 | 3 | 4 | -3%
CC(=O)Nc1ccc(-c2nnn(CC(=O)c3ccccc3)n2)cc1Cl | 0.0 | -36 | 3 | -4 | 1%
O=CNNC(=O)c1cccc([N+](=O)[O-])c1 | -1.2 | -47 | 2 | -8 | -1%
COc1cccc(-n2c(SCC(=O)N3CCOCC3)nnc2-c2c[nH]c3ccccc23)c1 | -1.4 | x | 5 | -1 | 6%
O=C(CSc1nnc(-c2c[nH]c3ccccc23)o1)N1c2ccccc2CCc2ccccc21 | 12 | -10 | 0 | -24 | 3%
CCS(=O)(=O)C1=NSC2=NC(=O)/C(=C\c3ccc(OC(=O)c4ccco4)cc3)C(=N)N21 | 25 | x | 95 | x | x
COc1cc(C(=O)Nc2ccc(S(=O)(=O)Nc3onc(C)c3C)cc2)cc(OC)c1OC | -0.2 | -34 | 34 | 7 | -2% | Arbovirus inh repeat=-2
CCOc1ccc(-c2[nH]nc3c2C(c2ccc4c(c2)OCO4)C(C#N)=C(N)O3)cc1OC (stereo not drawn) | 60* | -16 | -8 | 1 | x
COc1ccc(-n2nc3c(N4CCC(C(=O)NCc5ccccc5C)CC4)nnc(C)c3c2C)cc1 | 6.3 | x | 7 | x | x
Cc1cc(C)nc(NC(=O)CSc2nc3cc(Cl)ccc3s2)n1 | -2.5 | -5 | 79 | -7 | 1%
O=C(NC(=O)C(F)(F)F)Nc1ccc(S(=O)(=O)Nc2nccs2)cc1 | 1.0 | x | 1 | x | x
Cc1cc(NC(=O)CSc2nnnn2Cc2ccccc2)no1 | 0.1 | -54 | -4 | 0 | 2%
CCCSc1nc(N2CCCC2)c2c(c1C#N)CC(C)(C)OC2 | -3.1 | -11 | 3 | 0 | 14%
CCN(CC)C(=O)N1CCN(S(=O)(=O)c2ccccc2)CC1 | 1.6 | x | 4 | 1 | -2%
C/C(=N\Nc1ccccn1)c1ccc(S(=O)(=O)NCc2ccco2)cc1 | -2.1 | -29 | 5 | -33 | 11%
O=C(NCCc1ccccc1)C1CCN(C2CCN(Cc3ccc(CO)o3)CC2)CC1 | -1.0 | x | -3 | 8 | -9%
O=C(c1ccncc1)c1ccc(NS(=O)(=O)c2ccc(Br)s2)cc1 | -2.6 | -19 | -6 | 5 | -3%
CC1(C)CCC[C@]2(C)[C@H]3CC(=O)O[C@]3(C)CC[C@@H]12 | -0.8 | x | 0 | x | x
O=c1ccc2[n+]([O-])c3ccc(O)cc3oc-2c1 | 9.4 | x | x | x | -9%
O=C(Nc1cccc(Cl)c1)C1=Cc2cc(Cl)ccc2OC1 | 12 | -10 | 45 | -27 | 36%
COc1ccc(/C=C/C(=O)NCCNC(=O)c2ccccc2)cc1OC | 1.4 | x | 3 | 4 | -2%
CCOc1cc(C2C3=C(CCCC3=O)NC3=C2C(=O)CCC3)ccc1OCCO | -2.3 | -7 | -1 | 4 | -10%
Cc1cc(=O)[nH]c(SCc2nc3ccccc3s2)n1 | -1.5 | -12 | -9 | 6 | -5%
Further entries follow.
SMILES | RecA splice inh | YopH inh | Mtb betalactam | Arbovirus inh | Mtb H37Rv | others
COCCCn1c(=O)c2sccc2n2c(CCCC(=O)NCc3cccc(OC)c3)nnc12 | 0.2 | x | 0 | x | x
CCC(Sc1nc2ccccc2[nH]1)C(=O)Nc1cc(C)on1 (stereo not drawn) | 2.6 | -23 | 2 | 8 | -2% | Arbovirus inh repeat=5
O=C(O)c1ccc2cc[nH]c2c1 | 0.1 | -25 | 5 | 6 | 1%
COc1ccc(CCNC(=O)CSc2nc(C)nc3c2c(=O)n(C)c(=O)n3C)cc1OC | 3.1 | x | 0 | x | 3%
Cc1nn2c(=O)nc3sc4c(c3c2[nH]c1=O)CCCC4 | -3.1 | -31 | -3 | x | -5%
CCOC(=O)c1c(C)[nH]c(C)c1C(=O)CSc1nc2ccccc2n1CC | 0.2 | -10 | -2 | 11 | 1%
CCc1ccc(S(=O)(=O)Nc2cc3c(cc2C)n(C)c(=O)n3C)cc1 | -1.5 | x | 5 | x | x
COc1cccc(NC(=O)N2CCN(C(=O)C(Cc3ccc(OC)c(OC)c3)NC(C)=O)CC2)c1 (stereo not drawn) | -2.0 | 1 | 0 | -3 | 0%
COc1ccccc1-c1nn2c(C(F)(F)F)nnc2s1 | -1.5 | -29 | 8 | -1 | -16%
Cc1cccc(OCC(=O)Nc2c3c(nn2C(C)(C)C)CS(=O)(=O)C3)c1 | 1.4 | x | -13 | x | x
N#Cc1nc(COc2ccccc2)oc1N1CCOCC1 | -1.2 | -158 | -4 | 2 | x
COc1ccccc1N1CCN(C2CCN(C(=O)c3cc(OC)c(OC)c(OC)c3)CC2)CC1 | -0.8 | -38 | -1 | 4 | -6%
COc1ccc(S(=O)(=O)NNC(=O)c2cc3cc4ccccc4nc3s2)cc1 | 0.9 | -28 | 8 | -8 | 1%
Nc1ccc(NC(=O)NC2CCCCC2)cc1 | -0.3 | x | 3 | -3 | -4%
CCC(=O)N1CCc2cc(S(=O)(=O)NC(C(=O)NCc3ccc(F)cc3)C(C)C)ccc21 (stereo not drawn) | -0.8 | -43 | -5 | -5 | -7%
O=C(C[n+]1ccc(Cc2ccccc2)cc1)Nc1ccc([N+](=O)[O-])cc1Cl | 5.0 | x | 2 | 5 | 6%
O=S(=O)(NCCc1ccccc1)c1cccc(S(=O)(=O)N2CCOCC2)c1 | 1.3 | -44 | -12 | 3 | 1%
O=C(Nc1ccc(C(F)(F)F)cc1)N1CCN(C(=O)c2ccco2)CC1 | 0.4 | x | -6 | x | x
Nn1c(SCC(=O)Nc2ccc(F)cc2)nnc1-c1cccnc1 | 2.6 | 10 | 0 | 6 | -3%
COc1cccc(-c2cc(C(=O)NCCCN3CCOCC3)no2)c1 | -0.6 | x | 3 | x | x
O=S(=O)(/C=C/c1ccccc1)N1CCN(c2nc(-c3ccccc3)nc3ccccc23)CC1 | 2.4 | x | 3 | 9 | 7%
Cc1ccc(CN2C(=O)CCC2C(=O)N2CCN(c3ccccc3)CC2)cc1 (stereo not drawn) | 0.7 | x | 5 | 3 | 0%

Gathered by group, the entries above containing fluorine.
SMILES | RecA splice inh | YopH inh | Mtb betalactam | Arbovirus inh | Mtb H37Rv | others
Cc1ccc(S(=O)(=O)NC2(C(F)(F)F)NC(=O)N(c3ccc(F)cc3)C2=O)cc1 (stereo not drawn) | 4.6 | x | 18 | x | x
CCOC(=O)c1nccnc1C(=O)Nc1cccc(C(F)(F)F)c1 | -0.8 | x | 1 | -2 | -3%
Cc1cccc(NC(=O)CSCC(=O)NCc2cccc(C(F)(F)F)c2)c1 | 3.8 | x | -7 | x | x
CSc1ccccc1C(=O)N1CCCC(CNC(=O)c2ccc(F)cc2)C1 (stereo not drawn) | -0.3 | x | 6 | x | x
Cc1ccc(-n2nc3c(N4CCC(C(=O)NCc5cccc(F)c5)CC4)nnc(C)c3c2C)cc1 | -1.2 | x | 94 | x | x
O=C(NNC(=O)c1cc2cc(OC(F)(F)F)ccc2[nH]1)c1ccc(Cl)cc1 | -6.4 | x | 0 | x | 2%
Fc1ccc(OCc2nc(-c3ccc(Br)o3)no2)c(F)c1 | 0.0 | -53 | 2 | -10 | 22% | Arbovirus inh repeat=-3
Cc1ccccc1N(C(=O)Cc1ccsc1)C(C(=O)NC1CCCCC1)c1ccc(F)cc1 (stereo not drawn) | 0.2 | -22 | 3 | 4 | -3%
O=C(NC(=O)C(F)(F)F)Nc1ccc(S(=O)(=O)Nc2nccs2)cc1 | 1.0 | x | 1 | x | x
COc1ccccc1-c1nn2c(C(F)(F)F)nnc2s1 | -1.5 | -29 | 8 | -1 | -16%
CCC(=O)N1CCc2cc(S(=O)(=O)NC(C(=O)NCc3ccc(F)cc3)C(C)C)ccc21 (stereo not drawn) | -0.8 | -43 | -5 | -5 | -7%
O=C(Nc1ccc(C(F)(F)F)cc1)N1CCN(C(=O)c2ccco2)CC1 | 0.4 | x | -6 | x | x
Nn1c(SCC(=O)Nc2ccc(F)cc2)nnc1-c1cccnc1 | 2.6 | 10 | 0 | 6 | -3%
